Cruzain inh noDet – qHTS Assay for Promiscuous and Specific Inhibitors of Cruzain (without detergent); Potency, µM, without a hit: max response, negative = inhibition, most hits filed as inhibitors; AID 1476, 2009; Cruzipain (Trypanosoma cruzi), P25779; 200,000 tested, 2.3% active; purified cruzain, Z-FR-AMC fluorescence, no detergent;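 further: plate controls were enzyme without inhibitor for no effect and buffer without enzyme for full effect; nearly all actives have a fitted effect of over 40% in size; top concentration of the series not given in the record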
Target sequence (P25779 123-467 limits assumed): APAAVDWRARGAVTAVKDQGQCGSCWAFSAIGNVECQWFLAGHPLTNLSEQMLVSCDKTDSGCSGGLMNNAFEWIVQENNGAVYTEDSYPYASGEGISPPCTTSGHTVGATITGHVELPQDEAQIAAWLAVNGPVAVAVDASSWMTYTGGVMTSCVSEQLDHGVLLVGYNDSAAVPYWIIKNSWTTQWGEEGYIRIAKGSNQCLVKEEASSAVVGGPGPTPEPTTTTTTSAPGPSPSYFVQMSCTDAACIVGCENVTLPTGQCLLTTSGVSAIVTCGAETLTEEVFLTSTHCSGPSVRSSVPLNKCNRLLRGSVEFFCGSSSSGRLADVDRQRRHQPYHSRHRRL
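Purified cruzain at 1.5 nM, pre-incubated 15 min with compound at room temperature in 100 mM sodium acetate pH 5.5, 5 mM DTT, 0.00005% Triton X-100. Reaction started with 2 uM Z-FR-AMC; AMC fluorescence increase over 60 s gives rate.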
NS1 function inh – qHTS Assay for Inhibitors of Influenza NS1 Protein Function | Potency, µM (highest dose often 46.1 µM), without a hit: at the top dose activity, positive = more growth | 270,000 tested, 0.4% active | S. cerevisiae slowed by influenza A NS1, growth recovery by OD600; active means well fitted rising curve with a large enough effect; inconclusive means small, poorly fitted or top-dose-only effect; inactive means no such curve, though single readings can be large or run the other way; further: nearly all actives have a fitted effect of over 50% in size
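S. cerevisiae expressing influenza A NS1, grown in glucose, washed, then diluted 1:100 into pH 6.0 -URA galactose medium with 23 nl compound. Growth recovery read as OD600; NS1-free strain serves as control.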
Lassa entry inh – qHTS for Inhibitors of binding or entry into cells for Lassa Virus. Lassa virus pseudotype entry inhibition, cell reporter; control for the full effect not named in the record. Potency, µM (series often up to 37.9 µM), for inactives: at the top dose activity change, negative = inhibition, usual class: inhibitors. 300,000 tested, 1.2% active. AID 540256, 2011; active means well fitted inhibition curve with a large enough effect; inconclusive means small, poorly fitted or top-dose-only effect, or effect the other way; inactive means flat fitted curve, though single readings scatter; tested in HEK293 cells; further: on the % scale 0 is the no-effect control and ±100 the full control effect; nearly all actives have a fitted effect of over 50% in size; luciferase read-out
SARS PLpro yeast – qHTS of Yeast-based Assay for SARS-CoV PLP; S. cerevisiae expressing SARS-CoV PLpro, growth rescue; control for the full effect not named in the record; Potency, µM (top dose mostly 32.9 µM), for inactives: at the top dose activity, positive = growth rescue; 330,000 tested, 0.19% active; active means well fitted rising curve with a large enough effect; inconclusive means small, poorly fitted or top-dose-only effect; inactive means no such curve, though single readings can be large or run the other way; further: 0% is about no effect; nearly all actives have a fitted effect of over 55% in size; growth read by luminescence after 48 h
RE007 growth inh – qHTS Assay for Inhibitors of the HIV-1 protein Vpr; S. pombe RE007 Vpr strain, BacTiter-Glo ATP luminescence, 24 h; control for the full effect not named in the record; 360,000 tested, 0.21% active; Potency, µM (series often up to 92.2 µM), for the others: at the highest dose activity change, negative = less growth; AID 651644, 2012; active = well fitted falling curve with a large enough effect; inconclusive = small, poorly fitted or top-dose-only effect; inactive = no such curve, though single readings can be large or run the other way;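 further: on the % scale 0 is the no-effect control and ±100 the full control effect; nearly all actives have a fitted effect of over 50% in size; the assay follows cell death caused by Vpr and the record does not say whether a fall means rescue or toxicity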
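Fission yeast strain RE007, carrying one chromosomally integrated HIV-1 vpr copy, was seeded at OD 0.01 in PMG+AL medium with 23 nL pinned compound. After 24 h at 30 °C and 99% humidity, viability was read by BacTiter-Glo luminescence.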
Cruzain Triton – qHTS Assay for Promiscuous and Specific Inhibitors of Cruzain (with detergent) | purified cruzain, Z-FR-AMC fluorescence, 0.01% Triton | Potency, µM, for the others: max response, negative = inhibition, usual class: inhibitors | 200,000 tested, 0.43% active;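 further: plate controls were neutral wells for no effect and buffer without enzyme for full effect; nearly all actives have a fitted effect of over 40% in size; top concentration of the series not given in the record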
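15 min RT preincubation of 1.5 nM cruzain with compound, then 2 uM Z-FR-AMC added; kinetic AMC fluorescence, 60 s delta. Triton X-100 0.01%, pH 5.5.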
Marburg entry inh – qHTS for inhibitors of binding or entry into cells for Marburg Virus; Marburg virus pseudotyped entry inhibition, cell reporter; control for the full effect not named in the record; about a third of the inactives were read at about 46 µM; Potency, µM (doses to about 37.8 µM), inactives show at the highest dose activity change, negative = inhibition, most hits filed as inhibitors; 300,000 tested, 1.8% active; active = well fitted inhibition curve with a large enough effect; inconclusive = small, poorly fitted or top-dose-only effect, or effect the other way; inactive = flat fitted curve, though single readings scatter; tested in HEK293 cells; about a fifth of its hits are not listed in these tables; further: on the % scale 0 is the no-effect control and ±100 the full control effect; luciferase read-out
2A StopGo – High Throughput Screening for Foot and Mouth Disease Virus Antivirals; human cells with a luciferase reporter of 2A StopGo recoding; control for the full effect not named in the record; Potency, µM (top dose mostly 57.9 µM), for inactives: at the top dose signal change, negative = less light; 410,000 tested, 1.2% active; active = well fitted falling curve with a large enough effect; inconclusive = small, poorly fitted or top-dose-only effect; inactive = no such curve, though single readings can be large or run the other way; tested in HEK293T cells; further: on the % scale 0 is the no-effect control and ±100 the full control effect; nearly all actives have a fitted effect of over 45% in size; luciferase light after 4 h
The depositor's hits bear a star; ? = inconclusive; . = no result given; & = joins results of further samples; [ ] = dose if it differs, or a comment. Unless noted, the call rests on the fitted dose curve; in most records, active means well fitted curve in the direction sought with a large enough effect; inconclusive means small, poorly fitted or top-dose-only effect, or another doubt; inactive means no such curve, though single readings can be large; an effect the other way counts as inactive or inconclusive. Potency means the concentration at half of the fitted maximal effect.

The line under a structure holds: Cruzain inh noDet	NS1 function inh	Lassa entry inh	SARS PLpro yeast	RE007 growth inh	Cruzain Triton	Marburg entry inh	2A StopGo
1. COC(=O)c1ccc(NC(=O)CSc2n[nH]c(CC(C)C)n2)cc1
    7%	.	?	.	.	-4.5%	14%[46.1 µM]	1%
2. CCOC(=O)N1CCN(S(=O)(=O)c2ccc(C(=O)Nc3nc4ccccc4s3)cc2)CC1
    ?	-2%	-13%	1%	10%	2.5%	-17%	?
3. O=C1/C(=C/c2cccs2)SC(=S)N1N1CCOCC1
    .	-3%	14%[46.1 µM]	0%	-8%	.	-7%[46.1 µM]	15%
4. O=C(COc1ccccc1F)NNC(=O)c1ccc2c(=O)n3c(nc2c1)CCC3
    .	.	-2%	.	9%	.	-2%	1%
5. Fc1cccc(CN2CCCCCCC2)c1
    3%	-5%	6%	10%	-9%	11%	23%	-15%
6. CCCOc1ccc(OC(=O)c2cn(-c3ccc(OC)cc3)c(=O)c3ccccc23)cc1
    -12%	.	?	.	.	-1.9%	.	?
7. C=CCN(C(=O)Cc1cccs1)c1nc(-c2ccc(S(C)(=O)=O)cc2)cs1
    .	21%	?	-2%	0%	.	?	9%
8. C/C(=N/NS(=O)(=O)c1cc(C)ccc1C)c1c[nH]c2ccccc12
    .	-9%	-2%	1%	1%	.	?	12%
9. CC(C)C(=O)Nc1ccc(NC(=O)c2ccc([N+](=O)[O-])cc2Cl)cc1
    ?	7%	-10%	6%	.	-1.4%	?	-11%
10. Cc1cccc(C)c1NC(=S)N(CCCN1CCOCC1)Cc1cccnc1
    .	.	17%	1%	12%	.	?	10%
11. COc1ccc(Cl)cc1NC(=O)C(=O)NCc1ccc(Cl)cc1
    -5%	.	8%[46.1 µM]	.	.	-1.8%	.	?
12. CN(C(=O)Cn1nc(C(=O)O)c2ccccc2c1=O)c1ccccc1
    .	9%	22%	9%	1%	.	13%[46.1 µM]	13%
13. Cn1nccc1NC(=O)CC(CC(=O)O)c1ccccc1 (centres undefined)
    .	6%	.	0%	-6%	.	.	-3%
14. COc1ccc(CCNC(=O)c2coc(=O)c(Br)c2)cc1
    .	2%	.	1%	-21%	.	.	-26%
15. Cc1onc(-c2ccccc2)c1C(=O)N1CCCC(C(F)(F)F)C1 (centres undefined)
    .	11%	7%[46.1 µM]	-2%	-2%	.	2%[46.1 µM]	-1%
16. COc1ccc(CCn2c(N)cc(=O)[nH]c2=S)cc1OC
    ?	11%	8%	1%	1%	-3.1%	4%	-3%
17. O=C(Cc1c(Cl)cccc1Cl)OCC(=O)N1CCc2ccccc2C1
    3%	2%	26%	6%	.	-6.7%	30%	3%
18. C/C(=C\c1ccccc1)CN1CCN(Cc2ccc(C)o2)C(CCO)C1 (centres undefined)
    .	3%	-1%[46.1 µM]	0%	-4%	.	-5%[46.1 µM]	-29%
19. Cc1cc(=O)oc(C)c1C(=O)N1CCCCC1
    4%	1%	14%	0%	4%	-1.5%	23%	11%
20. Cc1ccccc1Cn1c2ccccc2c2cnn(CC(=O)NCC(C)c3ccccc3)c(=O)c21 (centres undefined)
    3%	.	17%[46.1 µM]	.	.	-2.3%	21%[46.1 µM]	-13%

Part of the list above in another layout:
16: COc1ccc(CCn2c(N)cc(=O)[nH]c2=S)cc1OC
17: O=C(Cc1c(Cl)cccc1Cl)OCC(=O)N1CCc2ccccc2C1

compound no.	16	17
Cruzain inh noDet	?	3%
NS1 function inh	11%	2%
Lassa entry inh	8%	26%
SARS PLpro yeast	1%	6%
RE007 growth inh	1%	.
Cruzain Triton	-3.1%	-6.7%
Marburg entry inh	4%	30%
2A StopGo	-3%	3%

(cont.)
The line under a structure holds: Cruzain inh noDet	NS1 function inh	Lassa entry inh	SARS PLpro yeast	RE007 growth inh	Cruzain Triton	Marburg entry inh	2A StopGo
21. Cc1cc2ccccc2n1CCNC(=O)c1cccc(Cl)c1
    -8%	.	-2%[46.1 µM]	.	.	-8.1%	-17%[46.1 µM]	19%
22. COc1ccc(NS(=O)(=O)Cc2ccccc2)cc1OC
    0%	4%	16%	1%	-1%	-4.3%	1%	-16%
23. Cc1ccc(C(=O)O/N=C/c2c(C(F)(F)F)nn(C)c2Sc2ccc(Cl)cc2)cc1
    -18%	8%	-27%	3%	-6%	5.9%	-27%	?
24. CC(C)(C)OC(=O)N/N=C\c1ccc([N+](=O)[O-])s1
    .	.	22%[46.1 µM]	-20%	-4%	.	14%[46.1 µM]	1%
25. Cc1nc2ccccn2c1C(=O)c1ccccc1
    -4%	-10%	2%	-7%	?	-2.8%	-9%	-1%
26. O=C(NCc1ccccn1)c1nc(-c2cccs2)no1
    .	.	9%	0%	4%	.	10%	27%
27. CCCCCc1nnc(NC(=O)C(=O)OCC)s1
    -3%	-18%	1%	-6%	8%	2.6%	14%	-12%
28. COc1cc(CN2CCN(Cc3ccc(C)cc3)C(CCO)C2)ccc1O (centres undefined)
    .	9%	-26%	0%	-4%	.	10%[14.2 µM]	-13%
29. COc1ccc(CNC(=O)c2cc(-c3cccc(Cl)c3)on2)cc1
    -8%	.	6%[46.1 µM]	.	.	-2.5%	-3%[46.1 µM]	-12%
30. COc1cccc(C(=O)NC2CC3CCC(C2)N3Cc2ccccc2)c1 (centres undefined)
    .	-3%	.	4%	-5%	.	.	-9%
31. COc1ccc(/C=N/NC(=O)C2COc3ccccc3O2)cc1OC (centres undefined)
    .	-2%	-18%[46.1 µM]	-1%	-9%	.	?	4%
32. COc1ccc(C(F)(F)F)cc1NC(=O)c1nc2nc(C)cc(C(F)F)n2n1
    9%	-5%	5%	-1%	13%	-2.8%	0%&0%	-24%
33. O=C(COC(=O)c1cccc2ccccc12)NCCCc1ccccc1
    2%	-13%	12%	-17%	-1%	-5.2%	-2%&-2%	-15%
34. CCOC(=O)c1ccc(-c2n[nH]c(=O)c3ccccc23)cc1
    ?	-12%	22%	0%	13%	2.9%	-4%	.
35. C=CCn1c(O)c(C(CC)=Nc2ccc(N(C)C)cc2)c(=O)[nH]c1=O
    .	5%	.	-1%	8%	.	-24%[14.2 µM]	?
36. Cc1cccn2c(=O)nc(SCC(=O)NCc3ccccc3Cl)nc12
    .	.	-1%	-2%	10%	.	10%	-9%
37. COC(=O)Cc1c(C)c2ccc(OC3CCCCC3=O)cc2oc1=O (centres undefined)
    .	2%	.	3%	9%	.	.	2%
38. COc1ccc(CCN(C)C(=O)/C=C/c2c(Cl)nc3ccccn23)cc1OC
    .	.	-11%	1%	22%	.	7%[46.1 µM]	-3%
39. COc1ccc(Cl)cc1NC(=O)CSc1cc(C)[nH]c(=O)n1
    -11%	.	-9%[46.1 µM]	.	.	-2.0%	.	-1%
40. COC(=O)CSc1ccc2nnc(-c3ccc(F)cc3)n2n1
    10%	-8%	5%	-1%	11%	2.8%	-3%	-2%
41. COc1ccc(CCNC(=O)c2nn(C)c3c2CS(=O)(=O)c2ccccc2-3)cc1OC
    .	7%	.	3%	-6%	.	.	-29%
42. COc1ccc(CCNCc2ccc(F)cc2)cc1OC
    1%	3%	2%	1%	-18%	-1.6%	?	-14%
43. NC(=O)c1ccsc1NC(=O)COC(=O)C1CC2CCCC(C1)C2=O (centres undefined)
    .	3%	?	-3%	11%	.	4%[46.1 µM]	-11%
44. COc1ccc(C(C(=O)NCc2ccc(F)cc2)N(C(=O)c2csnn2)C2CC2)cc1 (centres undefined)
    .	-10%	6%[46.1 µM]	-1%	-17%	.	?	10%
45. Cc1c(C(=O)N2CCN(c3ccccn3)CC2)oc2ccccc12
    -6%	-40%	-3%	1%	-16%	-3.3%	?	-19%
46. Cc1ccc(-c2csc(-c3cc4c([nH]c3=O)CC(c3ccccc3)CC4=O)n2)cc1 (centres undefined)
    -11%	.	8%[46.1 µM]	.	.	0.7%	-12%[46.1 µM]	-14%
47. Clc1ccc(-c2noc(CN3CCOCC3)n2)cc1
    .	4%	?	0%	-2%	.	9%	0%
48. Cc1ccc(S(=O)(=O)N2CCC[C@H]2C(=O)OCC(=O)N2CCc3ccccc32)cc1
    .	.	8%	6%	28%	.	?	-14%
49. COc1ccccc1N1C(=O)CC(Nc2ccc(N3CCOCC3)cc2)C1=O (centres undefined)
    12%	-7%	13%	0%	-12%	-7.0%	-7%[46.1 µM]	-19%
50. CCn1c(COc2ccccc2C)nnc1SCC(=O)NC1CCCC1
    7%	-11%	2%	-4%	-3%	3.7%	-14%	-11%
51. CNS(=O)(=O)c1cc(NC(=O)c2cccc3cccnc23)ccc1C
    .	-16%	?	-2%	2%	.	-14%[46.1 µM]	7%
52. CCN(CC)C(=O)CSc1cn(CC(=O)N2CCCCCC2)c2ccccc12
    3%	.	9%[46.1 µM]	.	.	-5.4%	.	8%
53. Fc1ccc(C(c2nnnn2CCc2ccccc2)N2CCCc3ccccc32)cc1 (centres undefined)
    ?	?	-26%	.	-14%	-1.4%	?	2%
54. CCc1ccc(C(=O)/C=C/Nc2ccc(S(=O)(=O)Nc3cnc4ccccc4n3)cc2)cc1
    .	3%	9%[46.1 µM]	1%	7%&-9%	.	-7%[46.1 µM]	52%&53%[activator]
55. O=C(c1cccc(F)c1)N1CCC(N2CCOCC2)CC1
    3%	-4%	8%	?	-11%	-0.4%	0%	-20%
56. Cc1ccc(-n2c(N)c(C(=O)N3CCOCC3)sc2=S)c(C)c1
    -11%	?	3%	-22%	17%	-10%	?	2%
57. COc1ccc(C2N(S(=O)(=O)c3ccc(C)cc3)CCN2S(=O)(=O)c2ccc(C)cc2)cc1
    -19%	19%	-27%	5%	-12%[3.69 µM]	8.2%	?	14%
58. COc1ccc2c(-c3ccccc3)cc(SCC(=O)NC3CCS(=O)(=O)C3)nc2c1 (centres undefined)
    ?	5%	?	17%	-12%	-7.5%	?	-20%
59. O=S1(=O)CCO[C@H]2Cc3ccccc3[C@H]2N1Cc1ccc(F)cc1
    .	-19%	.	0%	-18%	.	.	-10%
60. O=C(NN1CCOCC1)c1sc2cccc(F)c2c1Cl
    .	-2%	5%[46.1 µM]	0%	-19%	.	-1%[46.1 µM]	-14%
